RE007 growth inh – less growth of the S. pombe RE007 Vpr strain; S. pombe RE007 Vpr strain, BacTiter-Glo ATP luminescence, 24 h; control for the full effect not named in the record; Potency, µM (top dose mostly 92.2 µM), without a hit: at the highest dose activity change, negative = less growth; hit rate 0.21% among 360,000; active = well fitted falling curve with a large enough effect; inconclusive = small, poorly fitted or top-dose-only effect; inactive = no such curve, though single readings can be large or run the other way;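 note: nearly all actives have a fitted effect of over 50% in size; the assay follows cell death caused by Vpr and the record does not say whether a fall means rescue or toxicity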
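Fission yeast RE007 carrying one integrated HIV-1 vpr copy, seeded at OD 0.01 in PMG+AL medium with 23 nL pinned compound. Grown 24 h at 30 degrees; viability read by BacTiter-Glo luminescence after 5 min.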
StopGo reporter – lowers the luciferase signal of an FMDV 2A StopGo reporter | Potency, µM (titrated, usually from 57.9 µM), for inactives: at the highest dose signal change, negative = less light | human cells with a luciferase reporter of 2A StopGo recoding; control for the full effect not named in the record | hit rate 1.2% among 410,000 | AID 1159524; active = well fitted falling curve with a large enough effect; inconclusive = small, poorly fitted or top-dose-only effect; inactive = no such curve, though single readings can be large or run the other way; tested in HEK293T cells; note: nearly all actives have a fitted effect of over 45% in size; luciferase light after 4 h
Starred values were filed as active, the others as inactive; ? = inconclusive; & = joins results of further samples; [ ] = another dose, or the depositor's remark. % is set by controls: 0 for no effect and ±100 for the full control effect; potency is the fitted concentration of half-maximal effect. Not all compounds are listed; the hit share may differ from the screen's.

Second line of a record: RE007 growth inh	StopGo reporter
CCCn1c(C)cc(C(=O)CN2C(=O)NC3(CCCCCC3)C2=O)c1C
    -3%	0%
CCNC(=O)C1(C)CCCN(Cc2cccc3c2OCCO3)C1 (stereo not drawn)
    -2%	-10%
O=[N+]([O-])c1ccc(CN2CC(N3CC=CC3)CS2(=O)=O)cc1 (stereo not drawn)
    6%	-7%
C[C@H]1CN([C@@H](C)CO)S(=O)(=O)c2ccc(Br)cc2O[C@H]1CN(C)C(=O)CCN1CCCCC1
    15%	-16%
CCN(CC)CCN(C)C(c1cc2ccccc2o1)c1nnnn1C(C)(C)C (stereo not drawn)
    -22%	-2%
O=C(COC(=O)c1cc(=O)c2ccccc2o1)NCc1ccc(Cl)cc1
    10%	0%
COc1ccccc1-c1noc(CCC(=O)Nc2cccnc2)n1
    -3%	-27%
O=C(NCc1ccccc1)C(C1CC1)n1c(CSCCOc2ccccc2)nc2ccccc21 (stereo not drawn)
    9%	-16%
COc1ccc(C2COc3cc(O)ccc3C2)c(OC)c1O (stereo not drawn)
    6%	?
CCc1nnc(NC(=O)c2ccc3c(=O)n4c(nc3c2)CCC4)s1
    -12%	60%[activator]

Reprinted from the part before: six entries; new compounds follow.
Second line of a record: RE007 growth inh	StopGo reporter
CCN(CC)CCN(C)C(c1cc2ccccc2o1)c1nnnn1C(C)(C)C (stereo not drawn)
    -22%	-2%
O=C(COC(=O)c1cc(=O)c2ccccc2o1)NCc1ccc(Cl)cc1
    10%	0%
COc1ccccc1-c1noc(CCC(=O)Nc2cccnc2)n1
    -3%	-27%
O=C(NCc1ccccc1)C(C1CC1)n1c(CSCCOc2ccccc2)nc2ccccc21 (stereo not drawn)
    9%	-16%
COc1ccc(C2COc3cc(O)ccc3C2)c(OC)c1O (stereo not drawn)
    6%	?
CCc1nnc(NC(=O)c2ccc3c(=O)n4c(nc3c2)CCC4)s1
    -12%	60%[activator]
CCOC(=O)C1(C)CCCN1C(=O)c1ccc(C(=O)OC)cc1 (stereo not drawn)
    9%	-20%
CCCCCCCCN1C(=O)[C@H](CC(=O)NCCc2ccccc2OC)C[C@@]2(C(=O)OCC)CCC=C12
    -3%	-6%
CC(C)CNC(=O)C1(C)CCCN1C(=O)c1c(Cl)cccc1Cl (stereo not drawn)
    4%	1%
COc1ccc(CNC(=O)O[C@H]2Cn3c(=O)ccc(=O)n3[C@@H]3CN(S(=O)(=O)c4ccc(C)cc4)C[C@]23O)cc1OC
    5%	?
COc1cccc(/C=C/C(=O)OCC(=O)NC2CCCC2)c1
    -4%	-9%
Cc1ccc(C)c(N2CCN(C(c3ccccc3)c3nnnn3C(C)(C)C)CC2)c1 (stereo not drawn)
    3%	?
COc1ccc(NC(=O)N(C)C[C@H]2OCCCC[C@H](C)Oc3ccc(NC(=O)Nc4ccc5c(c4)OCO5)cc3C(=O)N([C@@H](C)CO)C[C@@H]2C)cc1
    1%	-13%
Cc1ccc(S(=O)(=O)N2C[C@H]3n4c(=O)ccc(=O)n4C[C@H](OC(=O)NCC4CCCCC4)[C@@]3(O)C2)cc1
    22%	32µM*
CCOC(=O)c1c(C)oc(=O)c(CC)c1O
    5%	-4%
COc1ccc(F)cc1-c1cc(C(=O)NCc2cccc(C(F)(F)F)c2)[nH]n1
    3%	-23%
COCCCNC(=O)c1csc([C@@H]2C[C@H](O)[C@@H](CO)O2)n1
    21%	-7%
COC(=O)C1=C(c2cccc(OCc3ccccc3)c2)C[C@@H]2CC[C@H]1N2C
    -23%	-25%
CC1CCCCC1=NNC(=O)c1ccccc1 (stereo not drawn)
    ?	19%
COc1ccc(NC(=O)C2(C)Cc3c(-c4cccc(NC(C)=O)c4)ccnc3O2)cc1 (stereo not drawn)
    -7%	-15%
COc1ccc(S(=O)(=O)n2cccc2)cc1
    13%	-3%
C=CCn1c(SCC(=O)Nc2cc(C)on2)nc2ccccc21
    17%	-19%
COc1ccc(C(C)C)cc1-c1cc(C(=O)NCc2cc(C(F)(F)F)cc(C(F)(F)F)c2)[nH]n1
    1%	-12%
N#Cc1ccccc1COC(=O)c1cc(S(=O)(=O)N2CCOCC2)ccc1F
    4%	-16%
OCC1OC(O)CC(O)C1O (stereo not drawn)
    4%	-20%
CCOc1ccc(Nc2ccc(S(=O)(=O)N3CCOCC3)cc2[N+](=O)[O-])cc1
    16%	-27%
CC1(c2cccc(Br)c2)NC(=O)N(CC(=O)NCCC2=CCCCC2)C1=O (stereo not drawn)
    -21%	?
O=C1NC[C@H](CCCCN2CCN(CCC3CCCCC3)C(=O)C2=O)N(CCC2CCCCC2)C1=O
    -16%	-4%
COc1ccc(C(=O)C(=O)N2CCC(Cc3ccccc3)CC2)cc1OC
    3%	-7%
CCCCOC(=O)c1ccc(NC(=O)c2ccc(F)cc2F)cc1
    7%	8%
CN(Cc1ccccc1)C(=O)c1cccc(NC(=O)Cc2ccc(NC(=O)C3CCCN(C(=O)CCc4ccccc4)C3)cc2)c1 (stereo not drawn)
    0%	?
CC(=O)Nc1cccc(-c2csc(C(C)(O)c3cccc(F)c3)n2)c1 (stereo not drawn)
    4%	?
CCC(=O)N1CCC1(C)C(=O)Nc1ccc2c(c1)CCN2C(C)=O (stereo not drawn)
    6%[18.4 µM]	-2%
C[C@@H]1CN([C@@H](C)CO)C(=O)c2cc(N(C)C)ccc2O[C@@H](C)CCCCO[C@@H]1CN(C)Cc1ccc2c(c1)OCO2
    9%	0%
COc1ccc(NC(=O)COC(=O)c2ccc(S(=O)(=O)N3CCCCC3)cc2)c(OC)c1
    -1%	-10%
O=C1NC[C@H](CCCCN2C[C@H](Cc3ccc(O)cc3)N(CCc3ccc(O)cc3)C(=O)C2=O)N(CC2CCCCC2)C1=O
    6%	-1%
O=C(NCc1cccnc1)C1C2C=CC(C2)C1C(=O)Nc1cccc(C(F)(F)F)c1 (stereo not drawn)
    -10%	-24%
COc1ccc(CC(N)c2csc(Nc3ccc(C(C)=O)cc3)n2)cc1 (stereo not drawn)
    -16%[18.4 µM]	-21%
Cc1nc(N2CCN(S(=O)(=O)c3cccs3)CC2)c2c(-c3ccccc3)c(C)sc2n1
    2%	?
O=C1[C@H]2CCCC[C@H]2C(=O)N1CCCCN1CCN(c2nsc3ccccc23)CC1
    0%[18.4 µM]	-28%
Cc1ccc(S(=O)(=O)NC[C@H]2O[C@@H](n3ccc(N)nc3=O)[C@H](O)[C@@H]2O)s1
    3%	-5%
CCC(c1nnnn1-c1c(C)cccc1C)N1CCN(c2ccc(C(F)(F)F)cc2[N+](=O)[O-])CC1 (stereo not drawn)
    48%	?
O=C(O)C[C@H]1c2cc(C(F)(F)F)ccc2S(=O)(=O)N1Cc1ccccc1
    -5%	2%
CCCCn1nnnc1C(c1cccc(OC)c1OC)N1CCN(C/C=C/c2ccccc2)CC1 (stereo not drawn)
    -13%	17%
CCCCCCCCNS(=O)(=O)CCNCCc1ccccc1
    -4%	-13%
CCN(CC)c1ccc(C(=O)NNC(=O)C2CCN(c3ncnc4sc(C)c(C)c34)CC2)cc1
    -1%	11µM*
CC(C)(C)S(=O)(=O)N1Cc2cc(=O)n(Cc3ccccc3)c(CCO)c2[C@H]1CCO
    -2%	-3%
Fc1ccccc1-c1nc2c(s1)CCc1onc(-c3ccc(Br)cc3)c1-2
    -3%	-8%
C[C@H](CO)N1C[C@H](C)[C@@H](CN(C)C(=O)c2cnccn2)Oc2ncc(Br)cc2C1=O
    -1%	-21%
Cc1ccc(C=NNC(=O)C(=O)Nc2ccc(Cl)c([N+](=O)[O-])c2)cc1
    1%[18.4 µM]	-18%
COc1ccccc1CNc1nc2cc(-c3sccc3C)sc2c(=O)n1C
    4%	29%
O=C1NCN(c2ccccc2)C12CCN(C(c1cc3ccccc3o1)c1nnnn1C1CCCC1)CC2 (stereo not drawn)
    9%	-21%
O=C1OC2C(O)COC23OC(O)CCC13O (stereo not drawn)
    -7%[18.4 µM]	-1%
CC[C@@H](C(=O)[C@@H](C)[C@@H](O)[C@H](C)[C@@H]1O[C@@H]([C@@H](CC)C(=O)O)CC[C@@H]1C)[C@H]1O[C@]2(C=C[C@@H](O)[C@]3(CC[C@@](C)([C@H]4CC[C@](O)(CC)[C@H](C)O4)O3)O2)[C@H](C)C[C@@H]1C
    17%	?
CC(C)C[C@H]1CN([C@@H](Cc2ccccc2)CN2CCC[C@H]2CN2C(=O)C(=O)NC[C@@H]2Cc2ccc(O)cc2)C(=O)C(=O)N1CC1CCCCC1
    6%	28%
O=C1O[C@H](CO)[C@@H](O)[C@H](O)[C@H]1O
    25%	-20%&-7%

The list continues:
Second line of a record: RE007 growth inh	StopGo reporter
CC1(C(=O)NS(=O)(=O)c2ccc(Cl)cc2)CCN1C(=O)Cc1ccsc1 (stereo not drawn)
    4%	4%
CCCCNC(=O)C1(C)CCC(=O)N1CCOC (stereo not drawn)
    1%	-1%
Cc1ccc(NC(=O)c2ncn(CCCN3CCN(c4ccccn4)CC3)n2)cc1C
    -5%	-24%
Clc1cccc(Cc2c(-c3cccc(Br)c3)nc3ccc(Br)cn23)c1
    -21%	25%
Cc1cccc(CN(C)C[C@H]2OCc3cnnn3CCCC(=O)N([C@H](C)CO)C[C@@H]2C)c1
    -7%	-6%
CCN1C(=O)[C@@H]2[C@@H]3CN(S(=O)(=O)c4ccc(C)cc4)[C@@H](c4ccccc4F)[C@@H]3C(=O)C[C@@H]2C1=O
    13%	9%
O=C(C[C@H]1CC[C@@H]2[C@H](COC[C@@H](O)CN2Cc2ccc(Cl)cc2)O1)NCCc1ccccc1
    0%	-21%
Cc1cc(C)c(Cn2c(=O)[nH][nH]c2=O)cc1Cn1c(=O)[nH][nH]c1=O
    -6%	-16%
CCCNC(=O)C1(C)CCN(Cc2ccc(Oc3ccccc3)cc2)C1 (stereo not drawn)
    -14%	-21%
Cc1ccc(S(=O)(=O)N2CCOCC2)cc1NC(=O)COC(=O)C1CCC1
    -6%	-14%
COC(C/C=C/[C@H](O)[C@H](C)OCc1ccccc1)OC
    -10%	-13%
COc1ccc(S(=O)(=O)N2CCCCCC2)cc1NC(=O)CCc1cc(OC)c(OC)c(OC)c1
    -6%	-2%
O=C(NCCc1ccccc1)Nc1nnc([C@@H]2C[C@H](O)[C@@H](CO)O2)s1
    -12%	-19%
COC(C/C=C/C(=O)[C@H](C)OCc1ccccc1)OC
    10%	35µM*
CC(NC(=O)C1CCN(CCOc2ccc(Cl)cc2)CC1)c1cccc2ccccc12 (stereo not drawn)
    -2%	?
C=CCOC(=O)C1=C[C@@H](c2ccc(Br)cc2)C[C@@H](OCCCCO)O1
    6%	-14%
CCn1cc(C2C3=C(CC(C)(C)CC3=O)N(c3ccc(C)cc3)C3=C2C(=O)CC(C)(C)C3)c(C)n1
    24%	-17%

Ordered by count of non-hydrogen atoms (ascending): some entries from above
Second line of a record: RE007 growth inh	StopGo reporter
CC(NC(=O)C1CCN(CCOc2ccc(Cl)cc2)CC1)c1cccc2ccccc12 (stereo not drawn)
    -2%	?
O=C(C[C@H]1CC[C@@H]2[C@H](COC[C@@H](O)CN2Cc2ccc(Cl)cc2)O1)NCCc1ccccc1
    0%	-21%
C[C@@H]1CN([C@@H](C)CO)C(=O)c2cc(N(C)C)ccc2O[C@@H](C)CCCCO[C@@H]1CN(C)Cc1ccc2c(c1)OCO2
    9%	0%
